LANA-H2A inh – blockers of LANA interaction with H2A/H2B – biochemical, FP readout, HTS, primary screen; AID 2629, 2010; 0.6% of 320,000 active; inhibition, % (no concentration beside the values); cell-free LANA-H2A/H2B peptide, fluorescence polarization; in the data active means inhibition mostly above about 10%, no sharp cut-off; inactive means mostly below about 6.7%;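 further: stock transfer was 7.5 nL into about 10 µL; 0% = median of vehicle wells and 100% = median of positive control wells; one replicate is shown; the record names a cut of 25% in any replicate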
T cruzi inh – inhibitors of intracellular T. cruzi growth, primary screen, luminescence, NIH3T3 host cells. T. cruzi beta-gal in NIH3T3, 90 h. inhibition, % (no concentration beside the values). 1.4% of 300,000 active. AID 1885, 2009;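 active means mean inhibition across valid replicates above about 55%, limit read from the data; inconclusive means mean below that limit but half or more replicates reach it; inactive means mean below it, under half of replicates reach it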;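 further: signal also drops with host cell toxicity which is not excluded here; 0% = plate median of DMSO wells and 100% = zero luminescence signal; higher percent means less beta-gal luminescence so fewer parasites; stock transfer was 50 nL into about 50 µL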
Calb FLC – C. albicans growth inhibition with fluconazole, primary screen, CaCi-2 strain, Alamar Blue fluorescence; C. albicans CaCi-2 (fluconazole-resistant clinical isolate) + fluconazole, 48 h; growth inhibition, % (concentration not given with the values); 0.57% of 300,000 active;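 active means most replicates above 75%; inconclusive means exactly half above 75%; inactive means most below 75%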;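 further: all wells also contain fluconazole at 8 µg/ml as a sub-toxic cotreatment; 0% = median of DMSO wells and 100% = median of geldanamycin control wells; wells of about 8 µL received 7.5 nL stock; the first replicate is given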
RanGTP-Imp inh – inhibitors of RanGTP-importin-beta interaction, primary screen, biochemical, FRET, CFP-Ran, YFP-importin-beta, homogeneous; 1.1% of 300,000 active; Ran GTPase (GTP-bound) - importin-beta complex; inhibition, % (concentration not given with the values); AID 2216, 2009; cell-free CFP-Ran/YFP-importin-beta FRET ratio;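 active means most replicates above 15%; inconclusive means exactly half above 15%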;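 further: 0% = DMSO wells and 100% = Ran loaded with GDP instead of GTP; wells of about 40 µL received 100 nL stock; the first replicate is given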
MLL AF4-AF9 inh – inhibitors of AF4 peptide binding to AF9, primary screen, biochemical, AlphaScreen, biotin-AF4 peptide, FLAG-AF9, single point; 0.47% of 350,000 active; inhibition, % at 10 µM;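 active means every replicate reaching a set inhibition limit, whatever the replicate mean, cut at about 25% in these data; inconclusive means mean inhibition reaches that limit but some replicates miss it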;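 further: 0% = plate neutral control median and 100% = total signal loss; the record names both 10 and 1 µM as test concentration; the first replicate is given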
Target sequence (P42568 whole entry, looked up): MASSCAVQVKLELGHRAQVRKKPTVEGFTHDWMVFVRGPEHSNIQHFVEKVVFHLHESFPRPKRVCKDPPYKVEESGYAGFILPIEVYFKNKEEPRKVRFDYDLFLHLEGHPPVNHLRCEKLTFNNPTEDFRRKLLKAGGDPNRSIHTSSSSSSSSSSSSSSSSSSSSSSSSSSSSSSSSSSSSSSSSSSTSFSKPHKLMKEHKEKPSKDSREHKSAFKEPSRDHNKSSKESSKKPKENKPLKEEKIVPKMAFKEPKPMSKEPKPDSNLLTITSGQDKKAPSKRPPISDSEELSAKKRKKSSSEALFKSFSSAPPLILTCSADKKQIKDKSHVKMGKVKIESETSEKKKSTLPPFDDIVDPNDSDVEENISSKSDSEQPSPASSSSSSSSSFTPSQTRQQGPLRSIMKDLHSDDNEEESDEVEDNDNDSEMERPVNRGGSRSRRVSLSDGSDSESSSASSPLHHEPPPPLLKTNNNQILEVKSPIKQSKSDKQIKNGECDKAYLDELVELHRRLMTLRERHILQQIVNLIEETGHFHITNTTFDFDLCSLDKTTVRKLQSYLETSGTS
A1 inh – caspase 3/7 activation in MEF A1-2A-BIM cells, primary screen, A1 inhibitor project, cell-based, luminescence, HTS | Caspase-Glo 3/7 luminescence, 3 h; percent of clofoctol response, vehicle zero | caspase activation, % (concentration not given with the values) | 0.066% of 330,000 active;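 active means over half of replicate activation scores above 10%, or exactly half above 10 with the replicate mean above 10; inconclusive means replicate mean below 10 yet half the replicates above 10; inactive means over half of replicates below 10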;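 further: wells of about 30 µL received 50 nL stock; many hits fall short of the cut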
Vif A3G – inhibitors of Vif binding to APOBEC3G peptide, primary screen, biochemical, TR-FRET, GST-Vif 1-94, biotin-A3G peptide, dose response retest (AID 1117319); TR-FRET GST-Vif / biotin-A3G peptide binding; higher % means a stronger effect; test concentration not given here; strong numbers were not always called active; Virion infectivity factor (Human immunodeficiency virus type 1 group M subtype B (isolate …; 0.57% of 260,000 active; inhibition, %, or IC50 in µM where a hit was titrated;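 active means above the screen mean plus three standard deviations and confirmed in dose response; inconclusive means results disagree or hit not tested in dose response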;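 further: Vif residues 1-94 fused to GST binding biotinylated APOBEC3G peptide 110-148; 0% = full assay without inhibitor and 100% = GST in place of GST-Vif; retest series ran down from 100 µM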
Beta apoptosis – inhibitors of cytokine-induced beta cell apoptosis, primary screen, luminescence; 0.8% of 300,000 active; INS-1E cytokine-induced death, ATP luminescence, 48 h; percent of positive-control rescue, neutral wells zero; protection from apoptosis, % (concentration not given with the values); AID 435005, 2010;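 active means all replicates at 75% or more, or half of them and the mean; inconclusive means half reach 75% but not the mean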;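 further: 0% = cytokine-treated negative control wells and 100% = positive control rescue; higher means more ATP so stronger rescue from cytokine killing; wells of about 40 µL received 100 nL stock; the first replicate is given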
* marks the source's active call; other numbers are inactive results; & = joins results of further samples.

`Cn1nc(C(=O)N2CCOCC2)c([N+](=O)[O-])c1C(=O)N1CCOCC1` gave LANA-H2A inh -8.8, T cruzi inh -7.7, Calb FLC 9.5, RanGTP-Imp inh 3.5, MLL AF4-AF9 inh -2.2, A1 inh 0.6, Vif A3G 17.0% and Beta apoptosis -4.7.
`COc1ccc(Cn2cc3c(-c4ccc(F)cc4)nnc-3c3cc(OC)c(OC)cc32)cc1` gave LANA-H2A inh 2.0, MLL AF4-AF9 inh -8.7, A1 inh -0.4, Vif A3G -23.0% and Beta apoptosis 99.6*.
For COC(=O)/C=C/c1cnc2ccccc2c1 the results were LANA-H2A inh -5.4, T cruzi inh 1.3, Calb FLC -1.7, RanGTP-Imp inh 2.6, MLL AF4-AF9 inh 0.0, A1 inh -0.9, Vif A3G 0.9% and Beta apoptosis 2.9.
For Cc1csc(NC(=O)COc2ccc3c(c2)CCC3)n1 the results were LANA-H2A inh -1.1, MLL AF4-AF9 inh 3.3, A1 inh -11.3 and Beta apoptosis -3.4.
Screening Cc1ccc(C(c2sc3ncnn3c2O)N2CCC(C)CC2)cc1 (stereo not drawn) returned LANA-H2A inh 1.9, T cruzi inh -3.3, Calb FLC 0.9, RanGTP-Imp inh inconclusive, MLL AF4-AF9 inh 3.9, A1 inh 0.0, Vif A3G inconclusive and Beta apoptosis -8.1.
Screening CCC(=O)Nc1nc2c(OC)ccc(C)c2s1 returned LANA-H2A inh -0.1, T cruzi inh -25.7, Calb FLC -4.2, RanGTP-Imp inh inconclusive, MLL AF4-AF9 inh 8.8, A1 inh 0.7, Vif A3G 0.9% and Beta apoptosis -4.0.
For COC(=O)c1cn(NC(=O)c2ccc(OC)c(OC)c2)c(=O)c2ccccc12 the results were LANA-H2A inh -2.3, T cruzi inh 17.3, Calb FLC -2.1, RanGTP-Imp inh 0.7, A1 inh -0.6, Vif A3G -6.3% and Beta apoptosis 7.5.
CCC(C)(C)C1CCc2c(sc(NC(=O)c3cccs3)c2C(N)=O)C1 (stereo not drawn) was read as LANA-H2A inh -6.7, T cruzi inh 26.0, Calb FLC 4.2, RanGTP-Imp inh 2.0, A1 inh -0.4 and Vif A3G 4.1%.
For CCOn1c(=O)c(=O)n(OCc2ccccc2)c2ccccc21 the results were LANA-H2A inh -0.6, T cruzi inh -5.3, Calb FLC -2.6, RanGTP-Imp inh -2.3, A1 inh -0.8, Vif A3G 6.8% and Beta apoptosis 2.0.
Screening COC(=O)c1ccc(CSc2nc(C)nc3sc(C)c(C)c23)o1 returned LANA-H2A inh 0.3, T cruzi inh -7.8, Calb FLC 8.1, RanGTP-Imp inh -4.0, A1 inh 0.3, Vif A3G inconclusive and Beta apoptosis 2.9.
Screening CC1=C(C(=O)OC(C)C)C(c2cccs2)N2C(=O)CCSC2=N1 (stereo not drawn) returned LANA-H2A inh -2.2, T cruzi inh -4.0, Calb FLC -5.4, RanGTP-Imp inh inconclusive, A1 inh -0.7, Vif A3G 1.8% and Beta apoptosis -6.5.
Screening Cn1c(O)c(N=NC(=O)Cn2ccc(C(F)(F)F)n2)c2ccccc21 returned LANA-H2A inh 3.4, T cruzi inh -0.9, Calb FLC -11.6, RanGTP-Imp inh -0.9, MLL AF4-AF9 inh 5.2, A1 inh 0.2, Vif A3G 2.4% and Beta apoptosis -2.5.
Screening Cc1ccc(NC(=O)COC(=O)CCc2c(C)nc3ncnn3c2C)cc1C returned LANA-H2A inh -1.2, MLL AF4-AF9 inh -59.0, A1 inh 3.3, Vif A3G -0.3% and Beta apoptosis -0.7.
Screening CCOC(=O)C1CCN(S(=O)(=O)c2cn(C)c(=O)n(C)c2=O)CC1 returned LANA-H2A inh 1.7, T cruzi inh 2.1, Calb FLC 0.9, RanGTP-Imp inh -2.0, MLL AF4-AF9 inh 1.6, A1 inh 0.4, Vif A3G 3.7% and Beta apoptosis -5.9.
O=C1CN(C(=O)c2ccc(Cl)c([N+](=O)[O-])c2)c2ccccc2N1 was read as LANA-H2A inh -4.1, T cruzi inh -19.8, Calb FLC 2.7, RanGTP-Imp inh -4.7, MLL AF4-AF9 inh 3.1, A1 inh 0.8 and Beta apoptosis -5.7.
Screening CSc1ncc(Cl)c(C(=O)Nc2cccc(C)c2)n1 returned LANA-H2A inh -0.1, T cruzi inh 1.3, Calb FLC 1.7, RanGTP-Imp inh 0.1, A1 inh 0.8, Vif A3G 4.8% and Beta apoptosis -7.0.
Cc1ccc(S(=O)(=O)NC2=NCCCCC2)cc1 was read as LANA-H2A inh -3.9, T cruzi inh 0.6, Calb FLC -12.1, RanGTP-Imp inh -0.7, MLL AF4-AF9 inh -2.1, A1 inh 0.6 and Beta apoptosis 4.2.
COc1ccc(OC(=O)CCCN2C(=O)c3ccccc3C2=O)cc1 was read as LANA-H2A inh 4.3, T cruzi inh -29.5, Calb FLC -9.4, RanGTP-Imp inh -4.6, A1 inh -1.1, Vif A3G 3.7% and Beta apoptosis -2.2.
COc1cc(CNC(C)(C)CO)cc(Br)c1OCc1ccccc1 was read as LANA-H2A inh -5.1, T cruzi inh 0.8, Calb FLC -14.6, RanGTP-Imp inh 0.9, MLL AF4-AF9 inh 1.1, A1 inh 0.5, Vif A3G 14.2% and Beta apoptosis 0.1.
`CN(CCOC(=O)/C=C/c1ccccc1)C(C)(C)C` gave LANA-H2A inh 0.7, T cruzi inh -2.9, Calb FLC -1.7, RanGTP-Imp inh 4.4, MLL AF4-AF9 inh 2.5, A1 inh -0.2, Vif A3G 19.4% and Beta apoptosis -2.9.
Cc1onc(-c2ccccc2)c1C(=O)OCC(=O)Nc1ccc2c(c1)OCO2 was read as LANA-H2A inh 0.9, T cruzi inh 28.6, Calb FLC -7.8, RanGTP-Imp inh inconclusive, A1 inh -0.5, Vif A3G -0.9% and Beta apoptosis -2.5.
`O=C(COc1ccc(Cl)cc1Cl)NCCCN1CCOCC1` gave LANA-H2A inh 0.0, T cruzi inh 10.8, Calb FLC -3.8, RanGTP-Imp inh 3.0, A1 inh 0.3, Vif A3G -7.2% and Beta apoptosis -3.5.
Screening C=CCOc1nc2c(c(=O)n(C)c(=O)n2C)n1Cc1ccccc1 returned LANA-H2A inh 1.5, T cruzi inh 2.3, Calb FLC 0.2, RanGTP-Imp inh 2.0, MLL AF4-AF9 inh 1.9, A1 inh 0.2, Vif A3G -5.5% and Beta apoptosis 7.9.
CN(C)/C=C(\C=O)c1ncc(C(F)(F)F)cc1Cl was read as LANA-H2A inh -0.2, T cruzi inh -6.1, Calb FLC 0.7, RanGTP-Imp inh -1.0, MLL AF4-AF9 inh 0.4, A1 inh 0.5, Vif A3G 0.2% and Beta apoptosis -1.7.
O=C1NC(c2ccc(F)cc2)Oc2ccccc21 (stereo not drawn) was read as LANA-H2A inh 9.0, T cruzi inh -11.5, Calb FLC 6.2, RanGTP-Imp inh -3.5, MLL AF4-AF9 inh -13.9, A1 inh 0.6 and Beta apoptosis -4.5.
For CCN(CC)CCOCCOc1cc(C)c(Cl)c(C)c1 the results were LANA-H2A inh -1.6, T cruzi inh 63.8*, Calb FLC -11.4, RanGTP-Imp inh 6.9, A1 inh -0.6, Vif A3G -1.8% and Beta apoptosis -3.3.
For CC1Cn2c(nnc2-c2cccc(N)c2)S1 (stereo not drawn) the results were LANA-H2A inh -1.0, T cruzi inh 1.7, Calb FLC -5.7, RanGTP-Imp inh 3.6, MLL AF4-AF9 inh 9.1, A1 inh 0.3, Vif A3G 3.4% and Beta apoptosis -1.4.
`COC(C)c1oc2c(C)c3oc(=O)cc(C)c3cc2c1C` (stereo not drawn) gave LANA-H2A inh 2.4, T cruzi inh 17.3, Calb FLC 1.0, RanGTP-Imp inh -2.5, MLL AF4-AF9 inh 1.8, A1 inh -0.9 and Beta apoptosis 2.7.
`O=c1c2ccccc2nc2n1CCC2O` (stereo not drawn) gave LANA-H2A inh -7.6, T cruzi inh -6.4, Calb FLC -4.8, RanGTP-Imp inh inconclusive, MLL AF4-AF9 inh -7.8, A1 inh 0.5 and Beta apoptosis -0.9.
Cn1c(SCC(=O)Nc2nnc(-c3ccccc3)o2)nnc1C1CC1 was read as LANA-H2A inh -0.1, T cruzi inh -15.8, Calb FLC -0.8, RanGTP-Imp inh inconclusive, MLL AF4-AF9 inh -0.8, A1 inh -0.3, Vif A3G -8.5% and Beta apoptosis -4.7.
Screening CCC1Oc2ccc(C)cc2N(CC(=O)NCc2cccc(OC)c2)C1=O (stereo not drawn) returned LANA-H2A inh -3.8, T cruzi inh 23.1, Calb FLC 27.8, RanGTP-Imp inh -2.4, A1 inh 0.6, Vif A3G 4.5% and Beta apoptosis 7.6.
For CC(Oc1ccc(Cl)cc1)C(=O)N1CCCc2ccccc21 (stereo not drawn) the results were LANA-H2A inh 3.5, T cruzi inh 7.2, Calb FLC -1.2, RanGTP-Imp inh -2.9, MLL AF4-AF9 inh -6.4, A1 inh -0.8 and Beta apoptosis 0.4.
`Cc1nc(C)c(CCNC(=O)c2cccc(Cl)c2)s1` gave LANA-H2A inh -0.1, T cruzi inh -13.9, Calb FLC 33.5, RanGTP-Imp inh 3.9, A1 inh -1.3 and Beta apoptosis -5.2.
`COCCCn1cn[nH]c1=S` gave LANA-H2A inh -10.0, T cruzi inh -15.1, Calb FLC -23.5, RanGTP-Imp inh 2.0, MLL AF4-AF9 inh -4.7, A1 inh 0.9 and Beta apoptosis -4.5.
For COc1cc(/C=C/C(=O)OCC(=O)Nc2ccc3c(c2)OCO3)ccc1O the results were LANA-H2A inh -4.5, MLL AF4-AF9 inh 4.2, A1 inh -0.3 and Beta apoptosis 3.6.
`CCOC(=O)C(CC)n1cnc2sc3c(c2c1=O)CCC3` (stereo not drawn) gave LANA-H2A inh 0.0, T cruzi inh -21.1, Calb FLC -6.5, RanGTP-Imp inh 1.9, A1 inh 0.2, Vif A3G inconclusive and Beta apoptosis -2.9.
`Cc1ccc(CN2C(=O)/C(=C\c3ccc(C(=O)NCc4cccnc4)cc3)Oc3ccccc32)cc1` gave LANA-H2A inh 0.7, T cruzi inh -7.2, Calb FLC 1.0, RanGTP-Imp inh 2.7, MLL AF4-AF9 inh -15.7, A1 inh -0.2 and Beta apoptosis 99.1*.
O=C(Nc1cccc2nsnc12)c1cccs1 was read as LANA-H2A inh 4.1&6.1, T cruzi inh -7.8&-14.5, Calb FLC 11.2&16.0, RanGTP-Imp inh 1.6&3.8, A1 inh -6.7&-3.3, Vif A3G 21.3%&25.8% and Beta apoptosis 9.2&-1.0.
N#CCCN=C(NS(=O)(=O)c1ccccc1)c1ccccc1 was read as LANA-H2A inh -4.3, Calb FLC -8.7, RanGTP-Imp inh -1.3, MLL AF4-AF9 inh 1.6, A1 inh 0.8 and Beta apoptosis -17.0.
For COc1ccc2nc(NC(=O)C3CCN(S(=O)(=O)c4cccnc4)CC3)sc2c1 the results were LANA-H2A inh 1.0, T cruzi inh 37.6, Calb FLC 23.0, RanGTP-Imp inh 1.4, MLL AF4-AF9 inh -1.6, A1 inh 0.3, Vif A3G -13.5% and Beta apoptosis 2.8.
O=C1NC[C@H](c2ccccc2)N(CC2CCCCC2)C1=O was read as LANA-H2A inh -3.0, T cruzi inh -5.3, Calb FLC 2.7, RanGTP-Imp inh -0.5, MLL AF4-AF9 inh 3.9, A1 inh -0.3 and Beta apoptosis -9.7.

High-throughput results deposited in PubChem BioAssay by several laboratories.
